Screens (PubChem BioAssay)
Cruzain inh Det = blocks cruzain activity in presence of Triton detergent. P25779. purified cruzain, Z-FR-AMC fluorescence, 0.01% Triton. Potency, µM, inactives show max response, negative = inhibition, actives largely listed as inhibitors. 0.43% of 200,000 active; active = well fitted curve in the direction sought with a large enough effect; inconclusive = small, poorly fitted or top-dose-only effect, or another doubt; inactive = no such curve, though single readings can be large; an effect the other way counts as inactive or inconclusive;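 note: plate controls were neutral wells for no effect and buffer without enzyme for full effect; nearly all actives have a fitted effect of over 40% in size; top concentration of the series not given in the record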
Target sequence (P25779 123-467 limits assumed): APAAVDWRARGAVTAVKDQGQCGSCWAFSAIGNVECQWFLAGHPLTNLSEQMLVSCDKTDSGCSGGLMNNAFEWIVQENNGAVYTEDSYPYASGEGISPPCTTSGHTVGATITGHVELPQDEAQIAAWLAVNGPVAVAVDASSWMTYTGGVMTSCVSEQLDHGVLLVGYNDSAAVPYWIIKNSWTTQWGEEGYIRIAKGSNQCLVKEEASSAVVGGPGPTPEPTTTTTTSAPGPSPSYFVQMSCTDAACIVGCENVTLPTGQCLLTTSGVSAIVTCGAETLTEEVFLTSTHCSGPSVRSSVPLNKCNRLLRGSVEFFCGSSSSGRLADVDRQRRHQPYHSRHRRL
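15 min RT preincubation of 1.5 nM cruzain with compound, then 2 uM Z-FR-AMC added; kinetic AMC fluorescence, 60 s delta. Triton X-100 0.01%, pH 5.5.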
SARS PLP yeast = blocks SARS-CoV papain-like protease in a yeast assay; S. cerevisiae expressing SARS-CoV PLpro, growth rescue; control for the full effect not named in the record; Potency, µM (highest dose often 32.9 µM), for the others: at the top dose activity, positive = growth rescue; 0.19% of 330,000 active; AID 485353; note: 0% is about no effect; nearly all actives have a fitted effect of over 55% in size; growth read by luminescence after 48 h
StopGo reporter = lowers the luciferase signal of an FMDV 2A StopGo reporter. AID 1159524. 1.2% of 410,000 active. human cells with a luciferase reporter of 2A StopGo recoding; control for the full effect not named in the record. Potency, µM (titrated, usually from 57.9 µM), inactives show at the highest dose signal change, negative = less light; active = well fitted falling curve with a large enough effect; inconclusive = small, poorly fitted or top-dose-only effect; inactive = no such curve, though single readings can be large or run the other way; tested in HEK293T cells; note: % is set by controls: 0 for no effect and ±100 for the full control effect; nearly all actives have a fitted effect of over 45% in size; luciferase light after 4 h
Marburg entry inh = inhibitors of Marburg virus binding or cell entry | Marburg virus pseudotyped entry inhibition, cell reporter; control for the full effect not named in the record; about a third of the inactives were read at about 46 µM | 1.8% of 300,000 active | AID 540276 | Potency, µM (doses to about 37.8 µM), for the others: at the top dose activity change, negative = inhibition, most hits filed as inhibitors; active = well fitted inhibition curve with a large enough effect; inconclusive = small, poorly fitted or top-dose-only effect, or effect the other way; inactive = flat fitted curve, though single readings scatter; tested in HEK293 cells; about a fifth of its hits are not listed in these tables; note: % is set by controls: 0 for no effect and ±100 for the full control effect; luciferase read-out
Cruzain noTriton = cruzain (T. cruzi) inhibition without detergent | P25779 | AID 1476 | Potency, µM, inactives show max response, negative = inhibition, most hits filed as inhibitors | 2.3% of 200,000 active | purified cruzain, Z-FR-AMC fluorescence, no detergent; active = well fitted curve in the direction sought with a large enough effect; inconclusive = small, poorly fitted or top-dose-only effect, or another doubt; inactive = no such curve, though single readings can be large; an effect the other way counts as inactive or inconclusive;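 note: plate controls were enzyme without inhibitor for no effect and buffer without enzyme for full effect; nearly all actives have a fitted effect of over 40% in size; top concentration of the series not given in the record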
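Purified cruzain at 1.5 nM, pre-incubated 15 min with compound at room temperature in 100 mM sodium acetate pH 5.5, 5 mM DTT, 0.00005% Triton X-100. Reaction started with 2 uM Z-FR-AMC; AMC fluorescence increase over 60 s gives rate.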
RE007 growth inh = less growth of the S. pombe RE007 Vpr strain | S. pombe RE007 Vpr strain, BacTiter-Glo ATP luminescence, 24 h; control for the full effect not named in the record | Potency, µM (doses to about 92.2 µM), without a hit: top-dose activity change, negative = less growth | 0.21% of 360,000 active | AID 651644; active = well fitted falling curve with a large enough effect; inconclusive = small, poorly fitted or top-dose-only effect; inactive = no such curve, though single readings can be large or run the other way;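 note: % is set by controls: 0 for no effect and ±100 for the full control effect; nearly all actives have a fitted effect of over 50% in size; the assay follows cell death caused by Vpr and the record does not say whether a fall means rescue or toxicity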
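Fission yeast strain RE007, carrying one chromosomally integrated HIV-1 vpr copy, was seeded at OD 0.01 in PMG+AL medium with 23 nL pinned compound. After 24 h at 30 °C and 99% humidity, viability was read by BacTiter-Glo luminescence.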
Lassa entry inh = Lassa virus entry inhibition. Lassa virus pseudotype entry inhibition, cell reporter; control for the full effect not named in the record. Potency, µM (series often up to 37.9 µM), without a hit: at the highest dose activity change, negative = inhibition, hits mostly inhibitors. 1.2% of 300,000 active; active means well fitted inhibition curve with a large enough effect; inconclusive means small, poorly fitted or top-dose-only effect, or effect the other way; inactive means flat fitted curve, though single readings scatter; tested in HEK293 cells; note: % is set by controls: 0 for no effect and ±100 for the full control effect; nearly all actives have a fitted effect of over 50% in size; luciferase read-out
NS1 inh = blocks influenza NS1 protein function; S. cerevisiae slowed by influenza A NS1, growth recovery by OD600; Potency, µM (series often up to 46.1 µM), for inactives: at the top dose activity, positive = more growth; 0.4% of 270,000 active; note: actives are rising curves; nearly all actives have a fitted effect of over 50% in size
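Read-out: OD600 growth recovery of NS1-expressing budding yeast. Cells grown overnight at 30C in -URA glucose medium, washed, resuspended and diluted 1:100 in 2% galactose assay medium, pH 6.0. Same strain lacking NS1 served as positive control.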
Starred values were filed as active, the others as inactive; ? = inconclusive; · = not tested or not shown; & = joins results of further samples; [ ] = remark or other dose. Unless noted, calls come from the whole dose curve; as a rule, active means well fitted rising curve with a large enough effect; inconclusive means small, poorly fitted or top-dose-only effect; inactive means no such curve, though single readings can be large or run the other way. Potency is the fitted concentration of half-maximal effect.

SMILES	Cruzain inh Det	SARS PLP yeast	StopGo reporter	Marburg entry inh	Cruzain noTriton	RE007 growth inh	Lassa entry inh	NS1 inh
Cc1ccc(C(=O)N2CC(=O)NC(=O)C2)cc1	·	1%	-10%	-15%[46.1 µM]	·	-1%	1%[46.1 µM]	14%
N#CCCN(Cc1cccnc1)C(=S)Nc1ccc(OC(F)F)cc1	·	0%	27%	3%[46.1 µM]	·	-8%	-6%[46.1 µM]	·
CCOC(=O)C1=C(C)NC(SCC(=O)O)=C(C#N)C1c1ccco1 (stereo not given)	-1.6%	-5%	14%	15%	-5%	5%	-1%	7%
COc1ccccc1NC(=O)COC(=O)c1ccc2c(c1)nc(C)n2-c1ccccc1	-1.9%	21%	30%	23%	-5%	24%	?	?
CCC(CC)C(=O)Nc1ccc(Cl)c(Cl)c1	-4.9%	-15%	?	-1%&-1%	-1%	-13%	-1%	-10%
COc1ccc(NC(=O)CSc2nc3ccccc3nc2N2CCOCC2)c(OC)c1	-6.5%	-8%	-19%&-16%	-10%[46.1 µM]	?	14%	-17%[46.1 µM]	4%
CCOC(=O)C1CCN(S(=O)(=O)c2c(C)noc2C)CC1	·	-1%	8%	·	·	-13%	·	7%
c1ccc(C2c3[nH]c4ccccc4c3CCN2Cc2cccn2-c2cccnc2)nc1 (stereo not given)	·	-1%	-2%	-6%[46.1 µM]	·	15%	-10%[46.1 µM]	0%
CCCCNc1c([N+](=O)[O-])cc(C(=O)O)cc1[N+](=O)[O-]	-5.5%	-11%	-5%	17%	-2%	1%	?	-10%
COc1ccc(NC(=O)c2cc(S(=O)(=O)N3CCCCC3)c[nH]2)cc1	·	6%	64%[activator]	·	·	0%	·	-11%
Nc1cc(=O)[nH]c(=O)n1CCCc1ccccc1	·	·	-1%	-2%[46.1 µM]	·	11%	-6%[46.1 µM]	·
O=C(O)[C@H](Cc1ccccc1)NC(=O)N1CCOCC1	5.6%	-4%	-8%	14%	3%	4%	0%	7%
COc1ccc(C(CCN2CCCC2)c2c(OC)cc(OC)c3c(-c4ccccc4)cc(=O)oc23)cc1 (stereo not given)	·	12%	18%	·	·	-16%	·	-1%
Cc1ccccc1NC(=O)C1CCCN(C(=O)NCc2ccccc2)C1 (stereo not given)	·	1%	-1%	-22%	·	3%	9%	0%
CCN(CC)CC(=O)Nc1scc2c1c(=O)oc1ccccc12	·	0%	55%[activator]	0%	·	-22%	-9%	-3%
Cc1nn(C)c(Cl)c1C(=O)NC(C(=O)O)c1ccccc1 (stereo not given)	·	0%	-4%	17%[46.1 µM]	·	1%	3%[46.1 µM]	0%
CN(C)CCCN=Cc1c(O)n(CCc2ccc(F)cc2)c(=O)[nH]c1=O	-5.6%	-1%	-6%	-5%	-5%	7%	-3%	0%
COc1ccc(CCNC(=O)Cn2c(=O)n(-c3ccc(C)c(F)c3)c(=O)c3sccc32)cc1OC	·	1%	3%	?	·	-11%	-20%	·
C=C(C)CSc1nnc([C@@H]2CCCN2)o1	·	0%	2%	-11%	·	-12%	5%	7%
CC(C)=CCN1CCN(Cc2cccc3c2OCO3)CC1CCO (stereo not given)	·	1%	-7%	3%[46.1 µM]	·	-7%	7%	-1%
Cc1cc2nn(-c3ccc(F)cc3)nc2cc1N	·	3%	-30%	5µM*	·	-17%	?	?
CCOC(=O)Cc1nnc(NC(=O)C(CC)Sc2nncn2C)s1 (stereo not given)	-5.7%	2%	-17%	·	2%	7%	·	-1%
COc1ccc(/C=N/NC(=O)Nc2cccc3nsnc23)cc1	-3.5%	-5%	20%	11%	-3%	15%	?	17%
CCOc1ccc(S(=O)(=O)Nc2ccc(C(=O)NCC(c3ccccc3)N(C)C)cc2)cc1 (stereo not given)	·	-1%	-5%	-9%	·	-1%	-10%	0%
CC(C)C(NC(=O)c1ccc(Cl)cc1)C(=O)NCC1CCCO1 (stereo not given)	·	2%	16%	5%[46.1 µM]	·	1%	4%[46.1 µM]	-10%
C/C(=N\N=C1\NC(=O)CC(C(=O)O)S1)c1ccc(F)cc1 (stereo not given)	-2.8%	10%	-17%	-10%	6%	28%	1%	-2%
CCOC(=S)SCC(=O)Nc1nc(-c2ccc(Br)cc2)cs1	4.1%	21%	?	?	?	21%	8.9µM*	-3%
Cc1sc2c(c1C)C(=O)/C(=C\Nc1ccncc1)S(=O)(=O)N2C	·	-1%	11%	26%[46.1 µM]	·	-22%	17%[46.1 µM]	6%
CS(=O)(=O)c1ccc(Sc2nc3ccccc3s2)c([N+](=O)[O-])c1	-3.8%	-18%	35µM*	11µM*	-21%	11%	?	8%
CC(CN1CCN(C)CC1)OC(=O)c1ccccc1Cl (stereo not given)	3.3%	?	-1%	-12%[46.1 µM]	-4%	-14%	-15%	0%
CS(=O)(=O)N1CCN(C2CCN(Cc3ccccc3)CC2)CC1	5.6%	1%	-19%	24%	-3%	-6%	2%	2%
CCCCN(C(=O)c1cc(Cl)nc2ccccc12)c1c(N)n(Cc2ccccc2)c(=O)[nH]c1=O	·	1%	1%	-30%	·	7%	2%	·
O=C1CCC(=O)N1c1ccc(S(=O)(=O)Nc2cccc(Br)c2)cc1	·	-1%	8%	0%[46.1 µM]	·	6%	-2%	2%
COc1cccc(CN(C(=O)c2cccs2)C2CCS(=O)(=O)C2)c1 (stereo not given)	·	1%	8%	3%[46.1 µM]	·	15%	-3%[46.1 µM]	-4%
O=C(/C=C/c1ccco1)NC1=NCCS1	-9.8%	-3%	0%	5%	-7%	-1%	?	14%
COc1ccc(N(CC(=O)N2CCOCC2)S(=O)(=O)c2ccccc2)cc1Cl	·	-6%	0%	17%	·	-23%	1%	-10%
CCOC(=O)Nc1cccc(Nc2ccccc2)c1	-6.9%	-18%	-1%	-4%	-6%	-29%	-19%	-54%
CCOC(=O)C1CCN(S(=O)(=O)c2ccc(NC(=O)OC)cc2)CC1	-2.6%	0%	?	-16%[46.1 µM]	13%	8%	-10%	3%
O=C(CCC(=O)N1CCN(C(=O)c2ccco2)CC1)c1ccc(F)cc1	·	4%	29%	2%[46.1 µM]	·	1%	-1%	0%
CCOc1ccc(C(=O)c2cn(CC(=O)Nc3ccc(OC)cc3)c3cc4c(cc3c2=O)OCCO4)cc1	-1.9%	·	?	5%[46.1 µM]	-9%	·	2%[46.1 µM]	·
O=C(Cn1c(NCCO)nc2ccccc21)c1ccc([N+](=O)[O-])cc1	·	0%	-6%	-2%[46.1 µM]	·	17%	-25%[46.1 µM]	7%
CN(Cc1ccsc1)C(=O)Cn1cc(Br)ccc1=O	·	4%	16%	14%[46.1 µM]	·	12%	-16%[46.1 µM]	-11%
COc1cccc(C(=O)C2CCCN(Cc3cn(C)nc3-c3ccccc3)C2)c1 (stereo not given)	·	-1%	-15%	-28%[46.1 µM]	·	10%	-19%	1%
Cc1cccc(-c2noc(CCC(=O)NCCc3ccccc3)n2)c1	·	-4%	1%	0%[46.1 µM]	·	-5%	31%[46.1 µM]	-11%
CC(C)(C)C(=O)NC(=S)Nc1ccccc1C(=O)Nc1ccccc1	-0.9%	-1%	·	-10%	-10%	7%	?	3%
CC1CCC2(CC1)NC(=O)N(CC(=O)c1cccn1C)C2=O (stereo not given)	-1.0%	-5%	-16%	1%[46.1 µM]	-5%	4%	-1%	2%
O=C(NCC(c1ccc2c(c1)OCO2)N1CCOCC1)C(=O)Nc1cccc(Cl)c1 (stereo not given)	-2.2%	·	-25%	·	8%	·	18%[46.1 µM]	·
Cc1cccc(C)c1N1CCN(CCn2c(=S)[nH]c3ccccc3c2=O)CC1	·	-4%	-14%	·	·	0%	·	3%
CC12CCC(C(=O)Nc3nccs3)(OC1=O)C2(C)C (stereo not given)	-1.9%	-1%	-21%	1%	-2%	1%[3.69 µM]	?	-6%
Cc1cccc(C2CC(=O)Oc3c2c(=O)oc2ccccc32)c1 (stereo not given)	0.2%	·	-6%	?	-2%	·	?	·
CCCc1c2ccccc2nc2ccccc12	-12%	-9%	-10%	-4%	16%	-23%	2%	-18%
O=C(NC1CCS(=O)(=O)C1)C1CCCN(S(=O)(=O)c2ccc(Cl)cc2)C1 (stereo not given)	0.3%	18%	-6%	2%	-6%	6%	2%	4%
CCOC(=O)/C=C1/SCC(=O)N1CC(=O)Nc1ccccc1OC(F)F	·	·	2%	-13%[46.1 µM]	·	7%	-2%[46.1 µM]	·
C=CCN(c1ccc(C(=O)N2CCN(c3ccc(F)cc3)CC2)cc1)S(C)(=O)=O	9.9%	1%	-5%	9%	?	13%	-23%	-12%
S=C(NCCc1ccccc1)Nc1ncccn1	·	·	78%[activator]	?	·	-13%	18%	·
COc1cc(-c2c(C#N)c(=O)[nH]c3c2c(C)nn3-c2ccccc2)ccc1O	-4.5%	1%	-17%	-1%	-3%	-6%	-5%	-20%
CC(C)(C)c1ccc(OCCNC(=S)NC(=O)c2cccnc2)cc1	-9.5%	0%	-12%	?	?	16%	-27%	15%
COc1ccc(Cn2nnnc2CN2CCc3ccccc32)cc1	-4.5%	-2%	·	12%	-14%	10%	0%	-9%
CCCCNC(=O)CN1C(=O)COc2ccc(S(=O)(=O)N3CCCCCC3)cc21	2.9%	3%	-10%&-2%	-5%&-5%[46.1 µM]	-11%	8%	14%[46.1 µM]	7%
CCOCC(=O)NC1CCc2cc(OC(=O)COCC)c(OC)c(OC)c2-c2ccc(SC)c(=O)cc21 (stereo not given)	·	·	-14%	?	·	-3%	?	·
Cc1cccc(NS(=O)(=O)c2ccc(C(=O)NCC(c3ccccc3)N(C)C)cc2)c1C (stereo not given)	·	6%	-5%	?	·	4%	?	-7%

Rows are unselected; overall some 4.7% were active at least once.
